High-throughput results deposited in PubChem by National Center for Advancing Translational Sciences (NCATS).
Marburg entry inh: blocks Marburg virus binding to or entry into cells | Marburg virus pseudotyped entry inhibition, cell reporter; control for the full effect not named in the record; about a third of the inactives were read at about 46 µM | AID 540276 | hit rate 1.8% among 300,000 | Potency, µM (doses to about 37.8 µM), inactives show top-dose activity change, negative = inhibition, usual class: inhibitors; active = well fitted inhibition curve with a large enough effect; inconclusive = small, poorly fitted or top-dose-only effect, or effect the other way; inactive = flat fitted curve, though single readings scatter; tested in HEK293 cells; about a fifth of its hits are not listed in these tables; also: % is scaled to controls: 0 for no effect and ±100 for the full control effect; luciferase read-out
Cruzain inh noDet: inhibitors of Trypanosoma cruzi cruzain without detergent; AID 1476; hit rate 2.3% among 200,000; purified cruzain, Z-FR-AMC fluorescence, no detergent; P25779; Potency, µM, without a hit: max response, negative = inhibition, most hits filed as inhibitors;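 also: plate controls were enzyme without inhibitor for no effect and buffer without enzyme for full effect; nearly all actives have a fitted effect of over 40% in size; top concentration of the series not given in the record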
Target sequence (P25779 123-467 limits assumed): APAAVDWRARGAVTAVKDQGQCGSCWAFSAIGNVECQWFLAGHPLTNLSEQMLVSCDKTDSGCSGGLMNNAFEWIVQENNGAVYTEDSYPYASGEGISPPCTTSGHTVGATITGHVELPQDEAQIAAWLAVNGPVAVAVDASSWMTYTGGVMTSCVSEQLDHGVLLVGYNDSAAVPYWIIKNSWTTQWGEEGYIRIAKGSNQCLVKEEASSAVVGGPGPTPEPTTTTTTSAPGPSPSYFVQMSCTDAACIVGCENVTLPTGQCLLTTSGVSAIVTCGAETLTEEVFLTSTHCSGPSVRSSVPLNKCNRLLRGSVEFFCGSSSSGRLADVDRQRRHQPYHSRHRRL
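Purified cruzain at 1.5 nM, pre-incubated 15 min with compound at room temperature in 100 mM sodium acetate pH 5.5, 5 mM DTT, 0.00005% Triton X-100. Reaction started with 2 uM Z-FR-AMC; AMC fluorescence increase over 60 s gives rate.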
SARS PLP yeast: SARS-CoV PLP inhibition in yeast. Potency, µM (series often up to 32.9 µM), inactives show at the highest dose activity, positive = growth rescue. hit rate 0.19% among 330,000. S. cerevisiae expressing SARS-CoV PLpro, growth rescue; control for the full effect not named in the record. AID 485353; active means well fitted rising curve with a large enough effect; inconclusive means small, poorly fitted or top-dose-only effect; inactive means no such curve, though single readings can be large or run the other way; also: 0% is about no effect; nearly all actives have a fitted effect of over 55% in size; growth read by luminescence after 48 h
2A StopGo: FMDV 2A StopGo reporter, luciferase signal | human cells with a luciferase reporter of 2A StopGo recoding; control for the full effect not named in the record | Potency, µM (top dose mostly 57.9 µM), inactives show at the highest dose signal change, negative = less light | hit rate 1.2% among 410,000 | AID 1159524; active = well fitted falling curve with a large enough effect; inconclusive = small, poorly fitted or top-dose-only effect; inactive = no such curve, though single readings can be large or run the other way; tested in HEK293T cells; also: % is scaled to controls: 0 for no effect and ±100 for the full control effect; nearly all actives have a fitted effect of over 45% in size; luciferase light after 4 h
RE007 growth inh: less growth of the S. pombe RE007 Vpr strain. S. pombe RE007 Vpr strain, BacTiter-Glo ATP luminescence, 24 h; control for the full effect not named in the record. Potency, µM (doses to about 92.2 µM), without a hit: at the highest dose activity change, negative = less growth. hit rate 0.21% among 360,000. AID 651644; active = well fitted falling curve with a large enough effect; inconclusive = small, poorly fitted or top-dose-only effect; inactive = no such curve, though single readings can be large or run the other way;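 also: % is scaled to controls: 0 for no effect and ±100 for the full control effect; nearly all actives have a fitted effect of over 50% in size; the assay follows cell death caused by Vpr and the record does not say whether a fall means rescue or toxicity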
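Fission yeast strain RE007, carrying one chromosomally integrated HIV-1 vpr copy, was seeded at OD 0.01 in PMG+AL medium with 23 nL pinned compound. After 24 h at 30 °C and 99% humidity, viability was read by BacTiter-Glo luminescence.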
Cruzain Triton: inhibitors of Trypanosoma cruzi cruzain with detergent. purified cruzain, Z-FR-AMC fluorescence, 0.01% Triton. Potency, µM, inactives show max response, negative = inhibition, actives largely listed as inhibitors. hit rate 0.43% among 200,000;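 also: plate controls were neutral wells for no effect and buffer without enzyme for full effect; nearly all actives have a fitted effect of over 40% in size; top concentration of the series not given in the record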
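Purified cruzain (1.5 nM final) was preincubated with compounds for 15 min at room temperature in 100 mM sodium acetate pH 5.5, 5 mM DTT, 0.01% Triton X-100. Reaction started with 2 uM Z-FR-AMC; AMC fluorescence change over 60 s gave activity.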
NS1 function inh: blocks influenza NS1 protein function; S. cerevisiae slowed by influenza A NS1, growth recovery by OD600; Potency, µM (titrated, usually from 46.1 µM), for inactives: at the highest dose activity, positive = more growth; hit rate 0.4% among 270,000; AID 2326; active means well fitted rising curve with a large enough effect; inconclusive means small, poorly fitted or top-dose-only effect; inactive means no such curve, though single readings can be large or run the other way; also: nearly all actives have a fitted effect of over 50% in size
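A cell-based growth assay was used: compounds that relieve NS1-induced slow growth of budding yeast raise OD600. Assay medium was yeast nitrogen base with ammonium sulphate and -URA supplement, pH 6.0, with 2% galactose.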
Lassa entry inh: inhibitors of Lassa virus binding or cell entry. Lassa virus pseudotype entry inhibition, cell reporter; control for the full effect not named in the record. Potency, µM (series often up to 37.9 µM), for inactives: at the highest dose activity change, negative = inhibition, usual class: inhibitors. hit rate 1.2% among 300,000; active means well fitted inhibition curve with a large enough effect; inconclusive means small, poorly fitted or top-dose-only effect, or effect the other way; inactive means flat fitted curve, though single readings scatter; tested in HEK293 cells; also: % is scaled to controls: 0 for no effect and ±100 for the full control effect; nearly all actives have a fitted effect of over 50% in size; luciferase read-out
Active calls of the source: *; ? = inconclusive; . = not tested or not shown; & = joins results of further samples; [ ] = remark or other dose. Unless noted, calls follow the shape of the dose curve; as a rule, active = well fitted curve in the direction sought with a large enough effect; inconclusive = small, poorly fitted or top-dose-only effect, or another doubt; inactive = no such curve, though single readings can be large; an effect the other way counts as inactive or inconclusive. Potency is read from the fitted curve at half-maximal effect. The order is random. About 4.6% of those tested had a hit in this group.

SMILES	Marburg entry inh	Cruzain inh noDet	SARS PLP yeast	2A StopGo	RE007 growth inh	Cruzain Triton	NS1 function inh	Lassa entry inh
Cc1cccc(CNS(=O)(=O)c2csc(C(N)=O)c2)c1	.	-15%	-8%	8%&23%	1%	2.1%	8%	-3%[46.1 µM]
COc1ccc(CCNC(=O)C2CCCN(Cc3nc(-c4cccc(Cl)c4)oc3C)C2)cc1OC (stereo not given)	?	3%	0%	-20%	-5%	-3.3%	-10%	-15%
O=C(N/N=C/C1CCCCC1)c1ccccc1-n1cccc1	11%[46.1 µM]	.	-3%	-13%	-9%	.	.	8%
Cc1ccc(C(Nc2ccccn2)c2ccc3cccnc3c2O)cc1 (stereo not given)	?	-26%	.	-9%	.	-7.4%	.	?
O=C(CCn1c(=O)c2cccn2c2cccnc21)NCc1ccccc1Cl	.	4%	.	10%	.	-0.5%	.	8%[46.1 µM]
CCOc1ccc(NC(=O)CN(C)C(=O)c2cc3c(s2)CCCCC3)cc1OCC	-11%	.	-4%	-12%	-12%	.	.	?
CCC(C)(C)C1CCC2(CC1)NC(=O)N(CC(=O)N(C)CC(=O)Nc1ccccc1C(F)(F)F)C2=O (stereo not given)	0%	.	7%	?	12%	.	-10%	-10%
NC(=O)c1cc(N)ccc1N1CCCC1	5%	-2%	-7%	-19%	-22%	1.8%	11%	-7%
Cc1ccccc1CN1C[C@@H]2C[C@@H](c3ccc4nsnc4c3)N3CCC[C@@]23C1=O	.	.	1%	33%[activator]	10%	.	5%	.
COc1ccc(CCN2C(=O)N(c3ccc(F)cc3)C(=O)C2CC(=O)Nc2ccccc2)cc1OC (stereo not given)	4%[46.1 µM]	2%	.	-17%	.	-1.6%	.	7%[46.1 µM]
COCCCNCCCOc1ccc(C(C)(C)c2ccccc2)cc1	?	9%	14%	-9%	0%	1.8%	-10%	?
CCS(=O)(=O)c1ccc2oc(Nc3ccc(C(C)(C)C)cc3)nc2c1	-5%	.	1%	?	2%	.	.	-25%
Cc1cc(NC2C3CC4CC(C3)CC2C4)n2ncnc2n1 (stereo not given)	1%	-10%	2%	.	2%	0.2%	-13%	?
CC(=O)n1c(C=Nc2ccc(Cl)cc2)c(O)c2ccccc21	?	.	-1%	1%	-17%	.	0%	-3%[46.1 µM]
CCOC(=O)COn1c(=O)c(-c2ccc(OC)c(OC)c2)[n+]([O-])c2ccccc21	.	-1%	6%	.	.	-5.6%	8%	.
Cc1ccccc1OCC(=O)OCC(=O)NCc1ccco1	6%	.	-7%	-16%	-5%	.	.	?
COc1ccc(SCCN2CCN(CC(C)C)CCC2=O)cc1	.	.	3%	-3%	-10%	.	0%	.
O=C1Nc2ccc(Br)cc2C1(O)c1ccccc1 (stereo not given)	.	.	0%	-12%	-10%	.	-1%	.
N#Cc1ccsc1NC(=O)CCN1C(=O)C2CCCCC2C1=O (stereo not given)	3%[46.1 µM]	.	-3%	-13%	20%	.	.	-13%[46.1 µM]
CCCCOc1ccc(Cc2c(COCC)[nH]c(=S)[nH]c2=O)cc1	-19%[46.1 µM]	.	-1%	-18%	2%	.	-1%	-11%
COC(=O)c1ccc(CSc2ncnc3ccccc23)o1	1%	-4%	-1%	?	-6%	-4.3%	-90%	.
CCCCNC(=O)CN1CCC2(O)CCCCC2C1c1ccccc1OC (stereo not given)	-26%	-5%	-4%	-6%	5%	0.6%	-4%	6%
Cn1c(=O)[nH]c(=O)c2c1nc(N1CCNCC1)n2Cc1cccc2ccccc12	-20%	-13%	-2%	-11%	6%	-6.5%	2%	18%
CCN1CCN(C(=O)Cn2nc(C)n3c(cc4c(OC)cccc43)c2=O)CC1	.	.	-3%	-10%	1%	.	-7%	.
CSc1ccc(C2C(C#N)=C(N)N(c3ccccc3)C3=C2C(=O)CCC3)cc1 (stereo not given)	-11%[46.1 µM]	16µM*	1%	-11%	2%	-8.9%	-22%	?
Cc1cc(CNC(=O)COc2ccc(F)cc2Cl)cc(C)c1O	-23%[46.1 µM]	.	0%	-18%	1%	.	13%	?
COC(=O)c1sc2ccccc2c1N	.	-17%	-23%	39%[activator]	-18%	-26%	-49%	.
Cc1cc(=O)nc2c3ccccc3n(C(C)C(=O)NCCN3CCOCC3)n12 (stereo not given)	6%[46.1 µM]	.	-3%	-8%	3%	.	0%	17%[46.1 µM]
CCCc1cc(=O)[nH]c(SCC(=O)N2CCN(S(=O)(=O)c3ccc(C)cc3)C2)n1	.	0%	2%	-9%	5%	0.9%	?	.
COc1ccccc1NC(=O)c1nn(-c2ccccc2)ccc1=O	-15%	-1%	-6%	-16%	2%	-0.6%	-1%	5%
COC(=O)CSc1snnc1-c1ccc(Cl)cc1Cl	-13%	5%	-10%	0%	-18%	-1.3%	-5%	-5%
COc1ccc(S(=O)(=O)N2CC(=O)Nc3ccccc32)cc1F	-20%[46.1 µM]	.	5%	-5%	8%	.	-5%	-16%[46.1 µM]
Cc1cccc(NC(=O)CC(C)(C)C)c1	-4%	-2%	-1%	-4%	2%	7.0%	-1%	14%
CCOC(=O)c1ccc2nc(NC(NC(C)=O)(C(=O)OC)C(F)(F)F)sc2c1 (stereo not given)	0%&-2%	4%	-6%	0%	3%	1.7%	-2%	?
CCOC(=O)N1CCN(CC(=O)Nc2ccc(C)c(Br)c2)CC1	6%&24%	19%	1%	-4%	-23%	1.1%	-15%	?
CCC(C(=O)NC1CCCC1)N(C(=O)Cn1nnc(-c2ccc(C)o2)n1)c1ccc(OC)cc1 (stereo not given)	?	.	2%	-11%	5%	.	20%	-1%[46.1 µM]
CC(C)CN(CC(C)C)C(=O)C1CCCN(S(=O)(=O)c2ccc3c(c2)oc(=O)n3C)C1 (stereo not given)	3%[46.1 µM]	-16%	.	-36%	.	0.0%	.	-14%[46.1 µM]
CS(=O)(=O)N(CC(=O)Nc1ccccc1Br)Cc1ccccc1	?	.	-2%	0%	0%	.	3%	12%
COc1ccc(CNC(=O)c2cccc(N3CCCS3(=O)=O)c2)cc1OC	?	-2%	.	?	.	-0.6%	.	-15%[46.1 µM]
COC(=O)c1cc(NC(=O)C2(S(=O)(=O)c3ccc(C)cc3)CC2)cc(C(=O)OC)c1	-25%	?	11%	-23%	15%	-4.7%	18%	0%
CCN(CC)C(=O)C1CCC(CNS(=O)(=O)c2cccc3nsnc23)CC1 (stereo not given)	.	.	?	0%	3%	.	-5%	.
CC1CCC(NC(=O)c2cccc(S(=O)(=O)N3CCN(C)CC3)c2)CC1 (stereo not given)	2%	.	-2%	0%	-1%	.	.	8%
Clc1ccc(-n2ncc3c(NCCCn4ccnc4)ncnc32)cc1	?	4%	-12%	31%[activator]	-7%	2.3%	-10%	?
O=C(NCC(c1cccnc1)N1CCOCC1)C(=O)Nc1ccc(Cl)cc1 (stereo not given)	.	8%	.	-23%	.	-2.6%	.	15%[46.1 µM]
COc1ccc(C2=C/C(=C/c3cccnc3)C(=O)O2)cc1OC	4%[46.1 µM]	-3%	1%	-10%	-6%	-2.6%	-18%	10%[46.1 µM]
CC(=O)NC(c1ccccc1)c1nc2ccccc2[nH]1 (stereo not given)	-3%&-1%	-4%	3%	.	2%	2.7%	4%	7%
CCOC(=O)c1sc2nc3c(SCC(=O)O)cc(C(=O)c4ccccc4O)cn3c(=O)c2c1C	9%[46.1 µM]	.	-1%	0%	-1%	.	.	-7%[46.1 µM]
Cc1cccc(C(=O)OCc2cc3ccccc3[nH]c2=O)c1	-6%	4%	3%	30%	14%	1.8%	-10%	?
COc1ccccc1C(CNC(=O)C(CCSC)NS(=O)(=O)c1ccccc1F)N1CCCC1 (stereo not given)	-25%[46.1 µM]	.	2%	-3%	-5%	.	.	-5%
NS(=O)(=O)c1ccc(CCNC(=O)c2nc(SCc3ccccc3F)ncc2Cl)cc1	-2%[46.1 µM]	?	.	-23%	.	-0.3%	.	2%[46.1 µM]
[N-]=C=C1C(=S)NC(=O)[C@H]([n+]2ccccc2)[C@H]1c1ccc(Cl)cc1	12%[46.1 µM]	.	0%	-18%	-13%	.	8%	-1%[46.1 µM]
CN1C(C(=O)Nc2ncccn2)=C(O)c2ccccc2S1(=O)=O	13%[46.1 µM]	.	0%	4%	-2%	.	1%	10%[46.1 µM]
O=C(Cn1nc(C(=O)O)c2ccccc2c1=O)Nc1ccc(Cl)c(S(=O)(=O)N2CCOCC2)c1	21%	.	0%	?	-2%	.	.	8%
CCCCCCc1cc2cc(-c3nnc(-c4ccccc4)o3)c(=O)oc2cc1O	0%	0%	9%	?	2%	-0.2%	2%	?
CN(CCO)C(=O)c1c(NC(=O)c2ccccc2)sc2c1CCCC2	4%[46.1 µM]	.	-9%	11%	5%	.	1%	-5%[46.1 µM]
Cc1cc(O)c(C(c2ccccc2)N2CCN(c3ccccc3F)CC2)c(=O)n1Cc1ccco1 (stereo not given)	.	?	.	-24%	.	1.6%	.	1%[46.1 µM]
O=C(CN(CC1CCCO1)C(=O)CNS(=O)(=O)c1ccc(Cl)cc1)NCCc1ccccc1 (stereo not given)	-14%	?	-1%	31%[activator]	2%	8.1%	-11%	23%
COc1c[nH]n(C2CCCCC2)c(=O)c1=O	7%	-3%	0%	7%	-28%	-4.7%	-175%	2%
Cc1cc(NC(=O)COC(=O)c2c(C)nn(Cc3ccccc3)c2Cl)no1	?	-10%	-3%	-16%	9%	-1.8%	1%	?
CCn1c(C)c(C)c2cc(C(=O)NCCN3CCCCCC3)ccc21	.	.	-6%	-21%	1%	.	-1%	.
O=C(NC(=S)N1CCCCCC1)C1CC1	?	-9%	8%	-2%	8%	-2.1%	13%	4%
CCN(c1ccccc1)S(=O)(=O)c1ccc2c(c1)N(C(C)=O)CCO2	2%[46.1 µM]	.	4%	-13%	-3%	.	-4%	-20%[46.1 µM]
O=C(NCC1CCN(c2ccc(S(=O)(=O)N3CCOCC3)cc2)CC1)Nc1ccccc1F	-18%[46.1 µM]	.	1%	-29%	-21%	.	-15%	.
